RecA intein inh – Mtb RecA intein splicing inhibitors, primary screen, biochemical, fluorescence, HTS; cell-free RecA intein splicing; inhibition, %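 (about 9 µM by stock and volumes)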; 290,000 compounds, 0.75% hits; in the data active = inhibition above about 30%; inconclusive = no clear call, values can overlap the other calls;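 note: 0% = vehicle wells and 100% = reference inhibitor control wells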
Target sequence (P9WHJ3 whole entry, looked up): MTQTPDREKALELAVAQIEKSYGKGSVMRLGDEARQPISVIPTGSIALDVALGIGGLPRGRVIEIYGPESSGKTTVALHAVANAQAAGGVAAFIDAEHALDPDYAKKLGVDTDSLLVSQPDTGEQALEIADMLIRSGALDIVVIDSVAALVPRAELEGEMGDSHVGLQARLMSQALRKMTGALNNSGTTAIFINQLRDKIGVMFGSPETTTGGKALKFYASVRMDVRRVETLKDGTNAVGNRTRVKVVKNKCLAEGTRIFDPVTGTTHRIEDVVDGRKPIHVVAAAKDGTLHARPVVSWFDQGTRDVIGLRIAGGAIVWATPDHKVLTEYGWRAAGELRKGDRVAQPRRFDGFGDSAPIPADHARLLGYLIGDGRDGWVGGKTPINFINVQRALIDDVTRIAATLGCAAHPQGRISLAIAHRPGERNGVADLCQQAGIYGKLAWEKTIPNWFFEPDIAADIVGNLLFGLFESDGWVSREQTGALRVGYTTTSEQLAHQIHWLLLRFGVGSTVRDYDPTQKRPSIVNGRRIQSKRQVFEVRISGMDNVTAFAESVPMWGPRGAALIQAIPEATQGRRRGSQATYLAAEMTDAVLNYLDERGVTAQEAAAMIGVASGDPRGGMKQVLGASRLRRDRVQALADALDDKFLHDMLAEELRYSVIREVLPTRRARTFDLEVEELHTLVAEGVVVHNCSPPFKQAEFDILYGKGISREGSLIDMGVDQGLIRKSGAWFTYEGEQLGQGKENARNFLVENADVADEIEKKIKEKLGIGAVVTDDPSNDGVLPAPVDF
Mtb bLac sens – beta-lactam sensitization of Mtb H37Rv, H37Rv. M. tuberculosis H37Rv growth with meropenem, percent inhibition; hits of this screen are not shown here. inhibition, % at 25 µM. 330,000 compounds, 0.27% hits. AID 434955, 2010;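 active = about 74% or more and at least 40 points above the plate without the antibiotic, then above 30% in a dose series; inconclusive = first-round hits that could not be retested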;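 note: growth measured after seven days incubation then overnight dye step; 0% = bacteria only wells and 100% = bacteria with antibiotic; twin plates without the antibiotic show which effects depend on it; some results filed as inactive read as strong as hits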
YopH inh – YopH tyrosine phosphatase inhibitors, primary screen, biochemical, fluorescence Ex485/Em525. inhibition, %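 (about 10 µM by stock and volumes)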. 140,000 compounds, 0.16% hits;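 active = inhibition of 50% or more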;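 note: controls were vehicle for no effect and minimum signal wells for full effect; inactives centre near -20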
Arbovirus inh – antivirals against arbovirus infection, primary screen, cell-based, full library, 10K replicate subset | arbovirus infection cell-based antiviral screen | inhibition, % at 10 µM | 200,000 compounds, 0.37% hits;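 active = inhibition from about 30%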;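 note: bluetongue infection of BSR cells; cell survival read as ATP light after 72 h; 0% = infected wells without compound and 100% = uninfected wells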
Mtb H37Rv – M. tuberculosis H37Rv growth inhibitors, H37Rv strain (AID 1626) | M. tuberculosis H37Rv growth inhibition; higher % means a stronger effect | inhibition, % at 10 µM, or IC50 in µM where a hit was titrated | 220,000 compounds, 0.95% hits;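 active = confirmed in a dose series; inconclusive = inhibition above 80% but not taken into the dose series; inactive = below 80% or under 30% at every dose of the series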;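 note: bacteria incubated seven days before Alamar blue readout; 0% = bacteria only wells and 100% = bacteria with antibiotic wells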
Active calls of the source: *; ? = inconclusive; nt = no result given.

SMILES	Mtb H37Rv	Arbovirus inh	RecA intein inh	YopH inh	Mtb bLac sens
CC1C(c2ccccc2)=[N+]([O-])C2(CCCCC2)N1O (configuration not stated)	-6.0%	3.6	0.8	-23.2	-0.1
COc1ccc(N(CC(=O)Nc2cc(Cl)ccc2C)S(=O)(=O)c2c(C)noc2C)cc1	nt	nt	-0.2	nt	3.0
COc1ccc(-c2nn(-c3ccccc3)cc2/C=N/NC(N)=S)cc1OC	3.0%	-13.2	5.3	-14.3	1.8
O=C(COC(=O)c1cccs1)NC12CC3CC(CC(C3)C1)C2	57.0%	3.2	1.1	nt	9.6
COc1cc(CCC(=O)Nc2cc(C)cc(C)c2)cc(OC)c1OC	4.8%	16.6	2.7	nt	-0.7
NS(=O)(=O)c1ccc(NC(=O)Cn2ncc3c2-c2ccccc2OC3)cc1	-1.5%	-10.0	-3.2	-35.1	3.5
COc1cc2cc(C(=O)NCCc3ccccc3)[nH]c2cc1OC	nt	nt	-0.2	nt	1.4
COc1ccc2oc(C(=O)OCC(=O)c3ccc4c(c3)OCCO4)c(C)c2c1	-9.7%	8.3	-1.0	-25.4	4.2
Fc1ccccc1CSc1nnc(-c2cccnc2)o1	1.9%	-7.3	-5.4	nt	-0.1
Cc1cccnc1NC(=O)C12CCC(C)(C(=O)O1)C2(C)C (configuration not stated)	-9.1%	0.5	1.6	-8.7	-12.8
CCN(CC)C(=O)Cn1cc(C(=O)C(=O)N2CCN(C)CC2)c2ccccc21	nt	nt	2.8	nt	-14.6
COc1ccccc1C(=O)NCCC(=O)NC(C)c1ccc(-n2ccnc2)cc1 (configuration not stated)	nt	nt	-13.3	nt	-0.3
O=C1CCC(C(=O)N2CCCCO2)CN1CCc1ccc(Cl)cc1 (configuration not stated)	nt	nt	2.2	nt	-9.2
CCSc1ncc(Cl)c(C(=O)Nc2ccc(S(=O)(=O)Nc3ncccn3)cc2)n1	nt	nt	-3.6	nt	6.7
O=C(COC(=O)Cc1ccccc1F)NNC(=O)c1ccc([N+](=O)[O-])cc1	nt	nt	-0.3	nt	15.3
CCc1ccc2c(CSc3nnnn3C)cc(=O)oc2c1	-12.7%	nt	1.5	nt	-6.1
CS(=O)(=O)Cc1ccc(C(=O)NC2CCCc3ccccc32)cc1 (configuration not stated)	nt	nt	-2.1	nt	1.5
CCCCC(=O)N1CC(=O)Nc2ccc(F)cc2C1c1ccccc1 (configuration not stated)	nt	nt	2.5	nt	4.1
CCCCCC(=O)c1ccc(O)cc1O	63.3µM*	2.8	-0.2	nt	90.7
Fc1ccc(C2CC(c3cccs3)=NN2c2ccccc2)cc1 (configuration not stated)	12.8%	-17.1	-102.2	nt	nt
Cc1c(NC(=O)CN2C(=O)NC(CCc3ccccc3)C2=O)c(=O)n(-c2ccccc2)n1C (configuration not stated)	-1.6%	2.6	0.0	nt	-2.5
Cc1ccc(NC(=O)Nc2cc(S(C)(=O)=O)ccc2Cl)cc1	nt	nt	-1.9	nt	-8.4
Sc1oc(-c2ccccc2)cc1C=Nc1ccccc1	-14.4%	9.0	7.1	-2.3	2.2
O=S(=O)(Nc1cccc(Oc2cnccn2)c1)c1ccc(F)cc1	6.2%	4.4	11.9	nt	-0.7
Cc1cccc(N2CCN(C(=O)c3c(C)nn(Cc4ccccc4Cl)c3C)CC2)c1C	13.9%	-19.5	15.3	-15.1	54.1
O=C(NN=C1C2CC3CC1CC(Cl)(C3)C2)c1cccs1	-1.5%	-14.7	1.2	nt	47.3
Cn1c(Cl)c(/C=N/OC(=O)c2ccc(Cl)cc2)c2ccccc21	42.2%	-2.8	-5.7	-35.3	0.2
Cc1ccc(C(=O)C2=C(O)C(=O)N(CCCN3CCOCC3)C23C(=O)N(C)c2ccccc23)o1 (configuration not stated)	-2.0%	0.2	2.0	-47.0	-6.0
O=C(CCN1C(=O)c2cccc3cccc(c23)C1=O)NCC1CCCO1 (configuration not stated)	2.0%	nt	-3.8	nt	-8.0
N#Cc1c(-c2ccccc2Cl)cc(C2CC2)nc1N	-4.5%	4.1	nt	-48.7	-5.2
O=C(CCCCn1c(=S)[nH]c2ccsc2c1=O)NCc1ccc2c(c1)OCO2	7.9%	-12.0	-0.8	nt	2.4
COCOc1ccc(C=O)c(O)c1	-5.3%	nt	-0.2	nt	-11.4
CCN(CC)c1ccc(N/C(N)=N/c2nc(C(F)(F)F)cc(=O)[nH]2)cc1	-4.7%	-6.7	-8.4	nt	-6.9
Nc1nc(NCc2ccccc2)nc(NCCO)c1[N+](=O)[O-]	-3.5%	nt	1.2	nt	-5.9
COCc1cc(C)nc(Nc2ccc(C)c(C)c2)c1C#N	-2.0%	2.4	-2.0	-41.3	12.5
COC(=O)c1cc(OC)c(OC)cc1NC(=S)N1CCCC(CO)C1 (configuration not stated)	-11.2%	10.6	-1.0	-15.8	2.4
CC(=O)c1ccc(-c2ccc(C(=O)N3CCC(C(N)=O)CC3)o2)cc1	nt	nt	-5.0	nt	-8.2
COc1ccc(C2Nc3ccc4ccccc4c3-c3c2c(=O)oc2ccccc32)cc1 (configuration not stated)	-6.7%	-21.4	-10.2	14.5	19.3
Cn1nc(-c2ccccc2)c(-c2nc(-c3cccc(Cl)c3)no2)c1Cl	5.8%	-4.0	-2.4	-1.4	-3.4
CC(=O)Nc1ccccc1NS(=O)(=O)c1ccccc1[N+](=O)[O-]	-3.3%	3.3	8.3	nt	-11.1
COc1ccc(OC)c2nc(-c3cccnc3)ccc12	nt	nt	0.6	nt	-3.1
COc1ccc(COC(=O)N/N=C(\C)CC(=O)NCc2ccc(Cl)cc2)cc1	-0.7%	14.4	0.1	nt	-3.4
O=C(COC(=O)/C=C/c1ccccc1[N+](=O)[O-])Nc1ccc(OC(F)F)cc1	-6.9%	3.7	-2.3	-23.0	0.8
CCOC(=O)/C=C/C(=O)NNC(=O)c1ccccc1Cl	?	1.0	-0.3	nt	100.2
O=C(Nc1cc2c3c(c1)CC(=O)N3CCC2)C1CC1	nt	nt	21.4	nt	-9.1
COc1cc(NC(=O)C2CC(=O)NC3=C2C(=O)CCC3)c(OC)cc1Cl (configuration not stated)	-5.7%	0.5	3.4	-38.0	nt
Cc1cc(=O)n2nc(N3CCC(C(=O)N4CCN(c5ccccc5)CC4)CC3)sc2n1	nt	nt	0.4	nt	1.7
Cc1ccc(NC(=O)c2cc(N(C)C)ccc2[P+](=O)O)cc1	-8.0%	-3.5	nt	-35.5	-4.1
CCOc1ccccc1-c1nc2c([nH]1)c(=O)n(C)c(=O)n2C	-5.5%	3.2	1.2	-35.8	-5.4
Cn1c(N)c(C(=O)COC(=O)c2cncc(Br)c2)c(=O)n(C)c1=O	5.2%	3.3	-6.2	nt	-6.5
COc1cc(NC(=O)C2CC(c3cccc(OC)c3OC)=NO2)cc(OC)c1OC (configuration not stated)	-9.8%	-11.9	-0.7	-7.4	?
CC(=O)c1ccc(NC(=O)COC(=O)c2ccc(F)cc2F)cc1	nt	nt	2.6	nt	4.0
COCCCN(C(=S)Nc1c(C)cc(C)cc1C)C(C)c1ccccn1 (configuration not stated)	-10.4%	1.6	-1.8	nt	79.2
Cc1ccc(S(=O)(=O)N2CCN(CC(=O)N/N=C/c3ccco3)CC2)cc1	-5.8%	-2.8	-2.2	-29.0	-3.6
Nc1c(C(=O)Nc2ccc3c(c2)OCCO3)nnn1Cc1cccc(F)c1	nt	nt	1.2	nt	0.9
CCCCN(CC)CCCNC(=O)c1cc2cc3ccc(OC)cc3nc2o1	nt	-6.8	-1.8	-25.3	-11.2
O=C(NC1CC1)C1CCN(C2CCN(C(=O)/C=C/c3cccs3)CC2)CC1	-2.2%	-1.7	0.2	nt	-2.5
Cc1ccc(C)c(OCC(=O)NCCN(C)C)c1	-6.3%	-2.7	-2.5	-53.4	-11.9
O=C(COC(=O)c1cc(S(=O)(=O)N2CCCCC2)ccc1N1CCOCC1)c1ccc(F)cc1	nt	nt	1.9	nt	3.7
CCOC(=O)c1nc(NCc2cccnc2)c2ccccc2n1	-7.4%	7.9	-1.0	-36.5	2.3

The list goes on.
SMILES	Mtb H37Rv	Arbovirus inh	RecA intein inh	YopH inh	Mtb bLac sens
COc1ccc(C(=O)Nc2ccc(OC)c(OC)c2)cc1	3.9%	-2.1	-2.0	-16.5	-11.4
Cc1ccccc1CSc1nnc(-c2ccncc2)n1C	nt	nt	0.1	nt	?
O=C(CSc1n[nH]c(=O)[nH]c1=O)c1ccccc1	0.8%	0.3	-0.7	-3.8	67.3
CCOC(=O)C1C(c2ccc(O)c(O)c2)NC(=S)NC1(O)C(F)(F)F (configuration not stated)	-6.5%	3.0	-8.9	-18.0	-4.0
Cc1cccc(C(=O)Nc2cccc(C(=O)NC3CCCC3)c2)c1	nt	nt	0.2	nt	0.9
C=CCn1c(CCNC(=O)c2cccs2)nnc1SCC(=O)Nc1cccc(C(C)=O)c1	2.3%	10.4	-0.2	-20.5	-19.5
CCOc1cc(CNc2ccc(N(C)C)cc2)cc(Br)c1OCC(=O)NC(C)(C)C	13.9%	-9.0	6.7	5.8	2.2
C/C(Cl)=C\Cn1c(N2CCCCCC2)nc2c1c(=O)n(C)c(=O)n2C	12.4%	-6.0	nt	-26.6	-2.3
CCOc1ccc(CN2CCN(Cc3[nH]c4ccc(OC)cc4c3C)CC2CCO)cc1 (configuration not stated)	?	-2.5	1.3	nt	3.4
CC1(C)CC(=O)C2=C(C1)Nc1[nH]c(=S)[nH]c(=O)c1C2c1ccccc1 (configuration not stated)	-6.9%	-0.6	0.1	-47.2	-7.8
COC(=O)[C@H]1[C@H]2C[C@@H]3c4[nH]c5cc(OC)ccc5c4CCN3C[C@H]2C[C@@H](OC(=O)c2ccc(N)cc2)[C@@H]1OC	70.9%	nt	-18.5	nt	68.3
CCCCn1c(SCC(=O)NCCc2ccc(OC)c(OC)c2)nc2c1c(=O)n(C)c(=O)n2C	-0.1%	5.2	-2.0	-58.5	-7.1
CCOc1cc(-c2c(C)c(CC)nc(N)c2C#N)ccc1O	3.0%	-19.0	2.8	-40.9	-5.8
Cc1cccn2c(=O)c3cc(C(=O)NC4CCCCC4)c(=N)n(Cc4ccc(F)cc4)c3nc12	nt	nt	-3.8	nt	98.0
CN(CC(=O)Nc1sccc1C#N)Cc1ccccc1	-5.6%	4.2	0.3	-21.6	-4.6

Ordered by heavy-atom count (falling): three of the compounds above.
SMILES	Mtb H37Rv	Arbovirus inh	RecA intein inh	YopH inh	Mtb bLac sens
CCOc1ccc(CN2CCN(Cc3[nH]c4ccc(OC)cc4c3C)CC2CCO)cc1 (configuration not stated)	?	-2.5	1.3	nt	3.4
CCOc1cc(-c2c(C)c(CC)nc(N)c2C#N)ccc1O	3.0%	-19.0	2.8	-40.9	-5.8
CN(CC(=O)Nc1sccc1C#N)Cc1ccccc1	-5.6%	4.2	0.3	-21.6	-4.6

Individual results from above:
Result of COC(=O)[C@H]1[C@H]2C[C@@H]3c4[nH]c5cc(OC)ccc5c4CCN3C[C@H]2C[C@@H](OC(=O)c2ccc(N)cc2)[C@@H]1OC under Mtb bLac sens: 68.3
Result of CCOc1cc(-c2c(C)c(CC)nc(N)c2C#N)ccc1O under RecA intein inh: 2.8

Going on with the list.
SMILES	Mtb H37Rv	Arbovirus inh	RecA intein inh	YopH inh	Mtb bLac sens
O=C(O)C1CC(O)CN1C(=O)c1ccco1 (configuration not stated)	-5.8%	-4.1	-0.3	-23.8	-1.8
CCOc1ccc(NC(=S)N(CC)Cc2ccccc2)cc1	18.7%	2.9	1.2	nt	-1.2
CCO/C=C1\N=C(c2ccc(F)cc2)OC1=O	0.6%	-9.8	-2.8	-19.3	-3.5
O=C(c1c[nH]c(C(=O)C(Cl)(Cl)Cl)c1)c1ccc(F)cc1F	nt	nt	33.8*	nt	11.6
NC(=O)CSc1oc(-c2ccco2)nc1S(=O)(=O)c1ccc(Cl)cc1	nt	nt	0.6	nt	5.4
O=C1CCCC/C1=C/Nc1ccc2c(c1)OCO2	34.5%	-2.4	-6.3	-26.1	34.0
CCn1c(SCC(=O)Nc2ccc(Br)cn2)nnc1C1CC1	nt	nt	-1.1	nt	-8.2

Bioassay records deposited in PubChem BioAssay by several laboratories.

A portion of the library (hit frequency here may not be typical).
